miR-21 FLuc: qHTS Assay for Modulators of miRNAs and/orActivators of miR-21. HeLa miR-21 FLuc reporter, luciferase, 48 h. Potency, µM (top dose mostly 38.3 µM), for the others: at the top dose reporter change, positive = more light. 340,000 tested, under 10 active; active = well fitted rising curve with a large enough effect; inconclusive = small, poorly fitted or top-dose-only effect; inactive = no such curve, though single readings can be large or run the other way;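 note: % of control where 0% means no effect; miR-21 action dims this reporter so a rising signal means less miR-21 action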
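Compounds were titrated across several concentrations (up to approximately 40 uM) and incubated 48 hours with HeLa miR-21-FLuc reporter cells (miR-21 target sequence downstream of FLuc, endogenous miR-21). Readout was firefly luciferase luminescence after lytic detection reagent.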
GLA inh pH 4.5: qHTS Assay for Inhibitors of Human alpha-Galactosidase at pH 4.5. 230,000 tested, under 10 active. activity change, negative = inhibition, % at 105 µM. AID 1467, 2008. purified enzyme, 4-MU-alpha-Gal fluorescence, pH 4.5. Alpha-galactosidase A (Homo sapiens), P06280; inconclusive = small, poorly fitted or top-dose-only inhibition, or a rising curve; inactive = flat fitted curve, though single readings scatter; no compound was filed as active;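 note: 0% = full activity with enzyme and -100% = basal without enzyme; dose as in the result columns while the protocol names 77 µM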
Rango dissoc inh: qHTS Assay for Inhibitors of RanGTP induced Rango (Ran-regulated importin-beta cargo) - Importin beta complex dissociation | Snurportin-1 (Homo sapiens) + GTP-binding nuclear protein Ran (Homo sapiens) + Importin … | Biochemical FRET Rango-importin beta, RanGTP-induced dissociation | Potency, µM (top dose mostly 46.1 µM), for the others: at the highest dose activity change, negative = inhibition | 340,000 compounds, 0.071% hits | AID 540253, 2011; active means falling FRET ratio curve, often poorly fitted, with flat reads before Ran was added; inconclusive means other falling curves, or compound fluorescence or quenching; inactive means flat or rising ratio curve;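 note: potency is the fitted concentration of half-maximal effect; % of control where 0% means no effect; nearly all actives have a fitted effect of over 45% in size; -100% = wells without RanGTP and RCC1; the record marks most hits as doubtful in a second field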
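Rango (0.1 uM)–importin beta (0.25 uM) complex; RanGTP-RCC1 trigger; 45 min RT; CFP/YFP FRET read.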
Rango-impB inh: qHTS Assay for Inhibitors of Rango (Ran-regulated importin-beta cargo) - Importin beta complex formation; Importin subunit beta-1 (Homo sapiens), Q14974; Rango CFP/YFP FRET sensor + importin beta, 45 min; Potency, µM (highest dose often 92.2 µM), for inactives: top-dose inhibition of complex formation; 340,000 compounds, 0.031% hits; AID 540263, 2011; active = rising FRET ratio curve, often small or poorly fitted; inconclusive = mostly compound fluorescence or quenching in the first reads; inactive = flat curves in all reads;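 note: potency is the fitted concentration of half-maximal effect; 0% = DMSO wells and 100% = buffer wells lacking importin beta; nearly all actives have a fitted effect of over 15% in size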
Target sequence (Q14974 whole entry, looked up): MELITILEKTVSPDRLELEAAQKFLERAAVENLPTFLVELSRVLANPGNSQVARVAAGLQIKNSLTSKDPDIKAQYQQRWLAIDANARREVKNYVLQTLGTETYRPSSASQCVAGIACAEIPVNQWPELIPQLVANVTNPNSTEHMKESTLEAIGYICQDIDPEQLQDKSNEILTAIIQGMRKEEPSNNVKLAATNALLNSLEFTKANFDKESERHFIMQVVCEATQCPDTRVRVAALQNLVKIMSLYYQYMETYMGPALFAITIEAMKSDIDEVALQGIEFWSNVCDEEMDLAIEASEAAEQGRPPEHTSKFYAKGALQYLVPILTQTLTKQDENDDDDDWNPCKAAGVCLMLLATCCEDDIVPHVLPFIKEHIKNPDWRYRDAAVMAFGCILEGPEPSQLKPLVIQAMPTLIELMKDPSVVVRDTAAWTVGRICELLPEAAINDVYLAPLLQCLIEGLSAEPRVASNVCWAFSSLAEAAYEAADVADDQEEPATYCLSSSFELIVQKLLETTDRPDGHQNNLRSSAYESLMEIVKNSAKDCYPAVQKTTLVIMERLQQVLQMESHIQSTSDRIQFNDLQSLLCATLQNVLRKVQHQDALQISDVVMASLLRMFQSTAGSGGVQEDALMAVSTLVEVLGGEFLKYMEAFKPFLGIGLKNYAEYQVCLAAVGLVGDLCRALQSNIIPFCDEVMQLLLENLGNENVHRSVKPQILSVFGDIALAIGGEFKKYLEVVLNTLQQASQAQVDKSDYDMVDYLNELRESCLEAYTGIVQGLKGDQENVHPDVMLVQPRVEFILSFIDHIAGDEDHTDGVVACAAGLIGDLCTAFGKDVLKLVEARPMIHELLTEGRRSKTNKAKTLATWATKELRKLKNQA
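FRET biosensor (snurportin 1 IBB flanked by EYFP and cerulean), 50 nM, with compound 5 min, then 0.125 microM importin beta in PBS, 1 mM DTT, 0.02% Tween-20, 0.1% BSA. CFP/YFP ratio read after 45 min at room temperature; pre-read flags interference.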
* hit, by the source's call; u = inconclusive; x = not tested or not shown; & = joins results of further samples. An excerpt; count on the stated rates, not on these rows.

Rango dissoc inh,miR-21 FLuc,Rango-impB inh,GLA inh pH 4.5,structure
1%,-1%,-0.3%,4,CCc1nnc(NC(=O)CSc2nnc(CCc3nc4ccccc4[nH]3)n2C)s1
-1%,x,4.6%,x,Nc1nc(N)c2[nH]c(=S)[nH]c2n1
-7%,x,0.1%,x,CCOC(=O)C1CCN(C(=O)COC(=O)C2CCN(S(=O)(=O)c3ccc4c(c3)OCCO4)CC2)CC1
-16%,19%,1.1%,-7,Cc1cc(Nc2ccc(N3CCOCC3)cc2)c2cccc(C)c2n1
-7%,-1%,-0.4%,x,Cc1c(C(=O)N(C)C2CCCCC2)sc2ncnc(N3CCN(c4ccccc4F)CC3)c12
1%,-6%,2.5%,-5,CC(C)(C)OC(=O)NCCc1nnc(SCc2c(Cl)cccc2Cl)o1
-7%,-1%,-1.6%,x,Cc1ccc(NC(=O)N2CCC(NC(=O)c3cccc(F)c3)CC2)cc1
2%,-3%,2.4%,2,COc1ccc(C)cc1NC(=O)CCC(=O)Nc1ccc2nc(N3CCN(C)CC3)cc(C)c2c1
1%,-4%,-4.4%,-7,CCC(CC)NC(=O)Nc1ccc(F)cc1F
-7%,-24%,5.5%,-8,CCOC(=O)c1ccc(NC(=O)COc2ccc(CNC3CCCCC3)cc2OC)cc1
-2%,x,u,-14,C[C@@H]1C(c2ccccc2)=NN(c2ccc(Br)cc2)[C@H]1C(=O)N1CCOC1=O
-4%,-1%,-1.8%,3,Cc1cc(NC(=O)CCCn2nc([N+](=O)[O-])cc2C)no1
-16%,23%,-2.5%,12,COc1cc2c(cc1OC)C(NC(=O)C(F)(F)F)CNC2=O (stereo not given)
-21%,x,1.3%,x,COc1ccccc1OCCCCCCN1CCN(C)CC1
-15%,0%,-0.1%,x,COc1ccc(CNC(=O)C2=CC(c3ccc(C)cc3)=NS(=O)(=O)N2C)cc1
-14%,-15%,0.0%,-16,FC(F)(F)c1cccc(NCc2cn3cccnc3n2)c1
-21%,-40%,u,x,COC(=O)c1ccc(/C=C2\Oc3ccccc3NC2=O)cc1
0%,-3%,0.3%,-3,COc1ccc(NC(=O)CSc2nnc(-c3ccccc3)n2Cc2ccco2)cc1OC
18%,x,-3.3%,x,CCCCn1c(N)c(N(Cc2ccccc2OC)C(=O)CC2OC(=O)c3ccccc32)c(=O)[nH]c1=O (stereo not given)
-3%,-1%,-0.2%,4,COc1ccc(C(C#N)c2ccc(=O)[nH]n2)cc1 (stereo not given)
1%,-36%,0.6%,12,Cc1ccc(C(=O)Nc2ccccc2C(N)=O)o1
-20%,-23%,0.4%,x,CC(C)(CCC(=S)N1CCOCC1)C1CCCCC1
1%,-28%,-0.4%,x,O=C(N/N=C/c1c[nH]c2ccccc12)c1cccc(Cl)c1
-2%,-5%,-1.0%,-1,CCOC(=O)CSCC(=O)Nc1cc(C)ccc1C
7%,-1%,-2.8%,4,O=S(=O)(c1ccc(F)c(F)c1F)N1CCN(C(=S)NCc2ccccc2)CC1
20%,-6%,1.3%,-2,CCCCc1n[nH]c(=S)n1Cc1ccc(Cl)cc1
-8%,-10%,0.0%,-24,COc1ccccc1-n1c(=O)c(C#N)c(-c2ccc([N+](=O)[O-])cc2)c2cc(C(=O)c3cc(F)ccc3O)cnc21
u,x,u,x,COc1cc2sc3cc(NCc4ccc(C)o4)ccc3c(=O)c2cc1OC
3%,-3%,0.2%,-14,O=C(c1ccccc1F)N1CCC(O)(c2cccnc2)CC1
-19%,x,0.4%,x,O=C(CSc1nnc(N2CCCC2)n1-c1ccccc1Cl)N1CCN(c2ccccn2)CC1
-5%,x,-0.4%,x,COc1ccccc1N1CCN(c2nc(C)cc(=O)[nH]2)CC1
-5%,-32%,1.3%,5,CC(=O)c1coc2c1cc(O)c1ccccc12
-1%,-4%,5.2%,-2,Cc1ccc(CN2CCN(Cc3cn[nH]c3-c3ccccc3)CC2CCO)o1 (stereo not given)
-6%,x,-4.6%,x,O=C(CNC(=O)c1ccc(Br)cc1)NC1CC1
-7%,-9%&-24%,3.0%,x,CCOc1ccc(CN(C(=O)c2cc(=O)c3cc(C)cc(C)c3o2)C2CCS(=O)(=O)C2)cc1 (stereo not given)
-16%,-1%,6.2%,-6,Cc1sc2ncnc(NC(C)C(=O)O)c2c1C (stereo not given)
4%,-2%,1.1%,10,COC(=O)Nc1ccc(S(=O)(=O)N2CCCCC2C(=O)NCc2ccco2)cc1 (stereo not given)
-7%,u,u,-2,CCC(=O)OCCNc1cc(Sc2nc3ccccc3s2)c2nonc2c1[N+](=O)[O-]
17%,2%,1.2%,-14,Cc1cc2ccccc2nc1SCC(=O)NC1CCCC1
-5%,x,u,x,Cc1ccc(S(=O)(=O)N2CCN(C(=O)CCc3c[nH]c4ccccc34)CC2)c(C)c1
6%,x,-1.1%,x,CN(Cc1c(F)cccc1Cl)C(=O)c1ccc(NC(=O)CC2SC(N3CCCCC3)=NC2=O)cc1 (stereo not given)
u,-2%,u,x,Cc1cccn2c(=O)c3cc(C(=O)NC4CCCC4)c(=N)n(CCc4ccccc4)c3nc12
3%,15%,-1.7%,-11,CCN(CCCNS(=O)(=O)c1ccc2c(c1)CCN2C(C)=O)c1cccc(C)c1
-17%,0%,0.9%,x,Oc1ccccc1CN1CCCC(N2CCc3ccccc3C2)C1 (stereo not given)
-1%,-49%,-0.2%,5,CCCC(=O)n1nc(-c2ccc(Cl)cc2)nc1SC
1%,-4%&0%,0.4%,x,CN(Cc1ccccc1)C(=O)CCS(=O)(=O)c1ccc2c(c1)oc(=O)n2C
4%,2%,0.2%,x,Cc1coc2cc3oc(=O)c(CCC(=O)NCC(=O)O)c(C)c3cc12
-3%,-5%,0.3%,4,CC(=NC(C)C)C1=C(O)C(C)OC1=O (stereo not given)
-19%,-2%,10%,-7,Nc1nc(Nc2cccc(F)c2)nc(NCCO)c1[N+](=O)[O-]
u,8%,u,10,COc1cc(-n2c(N)c(C(=O)NCc3ccco3)c3nc4ccccc4nc32)cc(OC)c1OC
9%,17%,4.2%,x,COc1ccc(N(C)S(=O)(=O)c2ccc3c(c2)CC(C)N3C(=O)C2CC2)c(OC)c1 (stereo not given)

19 structures out of the list, sorted by length of the SMILES, falling:
Rango dissoc inh,miR-21 FLuc,Rango-impB inh,GLA inh pH 4.5,structure
-8%,-10%,0.0%,-24,COc1ccccc1-n1c(=O)c(C#N)c(-c2ccc([N+](=O)[O-])cc2)c2cc(C(=O)c3cc(F)ccc3O)cnc21
-7%,-9%&-24%,3.0%,x,CCOc1ccc(CN(C(=O)c2cc(=O)c3cc(C)cc(C)c3o2)C2CCS(=O)(=O)C2)cc1 (stereo not given)
6%,x,-1.1%,x,CN(Cc1c(F)cccc1Cl)C(=O)c1ccc(NC(=O)CC2SC(N3CCCCC3)=NC2=O)cc1 (stereo not given)
u,8%,u,10,COc1cc(-n2c(N)c(C(=O)NCc3ccco3)c3nc4ccccc4nc32)cc(OC)c1OC
u,-2%,u,x,Cc1cccn2c(=O)c3cc(C(=O)NC4CCCC4)c(=N)n(CCc4ccccc4)c3nc12
-19%,x,0.4%,x,O=C(CSc1nnc(N2CCCC2)n1-c1ccccc1Cl)N1CCN(c2ccccn2)CC1
3%,15%,-1.7%,-11,CCN(CCCNS(=O)(=O)c1ccc2c(c1)CCN2C(C)=O)c1cccc(C)c1
1%,-4%&0%,0.4%,x,CN(Cc1ccccc1)C(=O)CCS(=O)(=O)c1ccc2c(c1)oc(=O)n2C
4%,2%,0.2%,x,Cc1coc2cc3oc(=O)c(CCC(=O)NCC(=O)O)c(C)c3cc12
u,x,u,x,COc1cc2sc3cc(NCc4ccc(C)o4)ccc3c(=O)c2cc1OC
-19%,-2%,10%,-7,Nc1nc(Nc2cccc(F)c2)nc(NCCO)c1[N+](=O)[O-]
-5%,x,-0.4%,x,COc1ccccc1N1CCN(c2nc(C)cc(=O)[nH]2)CC1
3%,-3%,0.2%,-14,O=C(c1ccccc1F)N1CCC(O)(c2cccnc2)CC1
-17%,0%,0.9%,x,Oc1ccccc1CN1CCCC(N2CCc3ccccc3C2)C1 (stereo not given)
-1%,-49%,-0.2%,5,CCCC(=O)n1nc(-c2ccc(Cl)cc2)nc1SC
20%,-6%,1.3%,-2,CCCCc1n[nH]c(=S)n1Cc1ccc(Cl)cc1
17%,2%,1.2%,-14,Cc1cc2ccccc2nc1SCC(=O)NC1CCCC1
-16%,-1%,6.2%,-6,Cc1sc2ncnc(NC(C)C(=O)O)c2c1C (stereo not given)
-3%,-5%,0.3%,4,CC(=NC(C)C)C1=C(O)C(C)OC1=O (stereo not given)

Some values from the list:
FC(F)(F)c1cccc(NCc2cn3cccnc3n2)c1 | GLA inh pH 4.5: -16
Oc1ccccc1CN1CCCC(N2CCc3ccccc3C2)C1 (stereo not given) | miR-21 FLuc: 0%

Screening data as filed in PubChem BioAssay.
